HSD17B inhib: inhibitors of human HSD17B10 dehydrogenase; 75,000 tested, 7.6% active; AID 893; recombinant HSD17B10, NADH fluorescence kinetic; many of its hits are not listed in these tables; Potency, µM (titrated, usually from 57.1 µM), inactives show at the highest dose activity change, negative = inhibition, usual class: inhibitors; Q99714; active = well fitted inhibition curve with a large enough effect; inconclusive = small, poorly fitted or top-dose-only effect; inactive = no such curve, though single readings can be large or run the other way;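 note: the protocol describes HADH2 (HSD17B10) and not the HSD17B4 of the title; nearly all actives have a fitted effect of over 70% in size; most hits overshoot -100% by far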
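20 nM HADH2, pH 9.0 Tris/Tween; cpd preinc 15 min RT; start w/ 1 mM NAD+ + 90 uM b-hydroxybutyryl-CoA; kinetic fluor ex360/em450 q30s x 4 min; delta last-first.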
Numbers without * were called inactive; ? = inconclusive; [ ] = another dose, or the depositor's remark. % is set by controls: 0 for no effect and ±100 for the full control effect; potency is the fitted concentration of half-maximal effect. This is a subset. The share of hits here may be higher or lower than overall.

Structure	HSD17B inhib
COc1ccc(CC(=O)NC(CC(=O)O)c2ccc(OC)cc2)cc1 (stereo not drawn)	-2.5%
Cc1ccc(OCC(=O)Nc2ccc3c(c2)nc2n3CCOC2)cc1	?
Cc1[nH]c(=O)[nH]c(=O)c1S(=O)(=O)NCCOC12CC3CC(CC(C3)C1)C2	5.1%
Cc1cccc(Cl)c1OCCCCn1ccnc1	5.5%
CCN(CC)C(=O)CSc1nc2sc(C)c(C)c2c(=O)[nH]1	1.4%
Cc1nnc(SCC(=O)N2CCC(Cc3ccccc3)CC2)n(N)c1=O	1.8%
Cc1cc(=O)cc(C)n1-c1ccccc1N1CCOCC1	?
C=CCNC(=O)C1CCN(S(C)(=O)=O)CC1	3.8%
Cc1cccc(NC(=O)c2ccc(S(=O)(=O)N(C)C)cc2)n1	9.5%
CCOc1ccc(/C=c2\sc3nc(-c4ccco4)nn3c2=O)cc1OCC	?
Cc1cc(C)c2c(CN3CCN(Cc4ccc5c(c4)OCO5)CC3)cc(=O)oc2c1	9.9%
CC1(C)CC(=O)C(/C=N/c2ncccc2C(=O)O)=C(O)C1	77.2%[activator]
O=C(NCC(=O)N1CCCC1C(=O)O)OC1CCCCC1 (stereo not drawn)	2.1%
COC(=O)c1cc(Cl)c(NC(=O)c2ccco2)cc1OC	?
CCOC(=O)Cc1nnc(NC(=O)c2ccccc2OCC)s1	-4.1%
O=C(NCc1ccco1)c1ccc(S(=O)(=O)N2CCCc3ccccc32)cc1	0.1%
COCCNC(=O)COc1ccc(Nc2ccccc2)cc1	6.9%
COc1ccc2c(Cl)c(-c3nnco3)sc2c1	?
CC1Cc2ccccc2N1C(=O)CCNS(=O)(=O)c1ccc2c(c1)CCC(=O)N2 (stereo not drawn)	-4.5%
CCOC(=O)c1ccccc1NCN1C(=O)CSC1=O	31.6µM*
O=C(NCC(c1cccnc1)N1CCOCC1)C1CCCCC1 (stereo not drawn)	9.4%
Cc1cnc(NC(=O)CSc2nc3ccccc3c(=O)[nH]2)s1	12.2%
COc1cc(OC)nc(NC(=O)NS(=O)(=O)c2ccc(OC(F)(F)F)cc2)n1	7.5%
Cc1cc(C)nc(Nc2nc(=O)c3ccccc3s2)n1	-4.3%
COC(=O)C1=C(N)Oc2cc(C)n(C)c(=O)c2C1c1ccc(Cl)c(Cl)c1 (stereo not drawn)	-5.8%
CCN(CC)CCCNC(=O)c1ccc(Cc2nc3ccccc3[nH]2)cc1	5.0%
CCOC(=O)C(C(=O)OCC)C(=O)c1cc(OC)c(OC)c(OC)c1	1.5%
COc1ccc(Cl)cc1S(=O)(=O)n1cnc2ccccc21	4.0%
CN(Cc1cc(=O)[nH]c2ccccc12)C(=O)c1ccccc1	-19.0%
CCSc1nc2c(c(=O)[nH]c(=O)n2C)n1C/C=C(/C)Cl	-5.4%
CN[C@H](CC(=O)O)C(=O)O	25.1µM*
COc1ccc(Oc2c(-c3ccc(O)cc3O)n[nH]c2C)cc1	-0.3%
O=C(NCC1COc2ccccc2O1)c1ccc(Cl)cc1 (stereo not drawn)	-11.8%
Cn1c(=O)c2nc(Cl)n(Cc3ccc(Cl)cc3Cl)c2n(C)c1=O	9.6%
O=C(NCc1cccnc1)C1CCCN(S(=O)(=O)c2ccccc2)C1 (stereo not drawn)	0.8%
O=C(O)CCCC(=O)Nc1ccc(Cl)c(Cl)c1	6.4%
CN(CCC#N)C(=O)COC(=O)c1ccc(Cl)c(S(N)(=O)=O)c1	4.4%
Cc1c(C(Nc2ccccn2)c2ccc(Cl)cc2)c(=O)n(-c2ccccc2)n1C (stereo not drawn)	14.5%
c1ccc2c(c1)ccc1nnc(-c3ccc4c(c3)OCO4)n12	31.6µM*
CCOC(=O)c1cnc(-c2ccccc2)[nH]c1=O	1.6%
COc1ccccc1OCCCn1c(=O)sc2ccccc21	-5.8%
CCn1c(CSc2nc(C)cc(C)n2)nnc1SCC(=O)Nc1ccccc1	6.7%
O=S(=O)(NCC(c1cccnc1)N1CCN(c2ccc(F)cc2)CC1)c1cccs1 (stereo not drawn)	1.9%
Cc1nc(N)sc1-c1csc(Nc2ccccn2)n1	-2.9%
Cc1cc(C)n(-c2nc(SCC(=O)Nc3nccs3)c3c4c(sc3n2)COC(C)(C)C4)n1	5.5%
Cc1cc(Nc2ccc(Br)cc2F)n2nc(C)nc2n1	3.0%
Cc1ccc(-n2c(C)cc(C(=O)CSc3nncs3)c2C)cc1	-6.3%
COc1cc(C2c3c(n[nH]c3C)C(=O)N2c2ccc(C)cc2)ccc1O (stereo not drawn)	-16.8%
CC(=O)Nc1ccc(N2CCN(C(C)=O)CC2)cc1	2.7%
O=C(O)c1cc2nc(-c3ccc(F)cc3)cc(C(F)(F)F)n2n1	-12.3%
O=C(CSc1nc2ccccc2nc1SCC(=O)N1CCOCC1)N1CCOCC1	-5.0%
O=C(Nc1ccc2c(c1)OCO2)N1CCN(C/C=C/c2ccccc2)CC1	-13.3%
CC(=O)C1=C(Nc2ccc(C)cc2)CC(C)(O)C(C(C)=O)C1c1ccco1 (stereo not drawn)	1.8%
O=C(C1CC1)N1CCN=C1SCc1ccccc1Cl	5.7%
O=C(Nc1ccc(S(=O)(=O)NCCc2ccccc2)cc1)c1ccc(Br)o1	66.4%[activator]
Cc1ccc(S(=O)(=O)N2CCC(C(=O)N3CCC[C@H]3C(=O)NCc3ccco3)CC2)cc1	2.8%
CCCC(=O)Nc1nnc(Sc2ccc(N(C)C)cc2)s1	0.4%
O=C(CSc1nccc(=O)[nH]1)Nc1ccc(Br)c(Cl)c1	1.1%
CCOc1ccc(-c2nc(C#N)c(NCc3ccc4c(c3)OCO4)o2)cc1	7.94µM*
COc1ccc(S(=O)(=O)N(CCc2ccccc2)CC(=O)NCCCO)cc1	3.2%

Other entries follow.
Structure	HSD17B inhib
CC(Sc1sc(=S)sc1SC(C)C(=O)O)C(=O)O (stereo not drawn)	-23.2%
O=C(/C=C/c1ccc(O)cc1)c1ccccc1O	-5.0%
CCOc1ccc(NC(=O)CSc2nnc(-c3ccncc3)n2CC2CCCO2)cc1 (stereo not drawn)	1.7%
CCCn1c(C)nc2c(NCCN3CCOCC3)nc(C)nc21	23.1%
COc1ccc(C2C(C(=O)c3sc(C)nc3C)=C(O)C(=O)N2CCN(C)C)cc1 (stereo not drawn)	-1.5%
CCC1(C(=O)OC)NC(c2ccccc2OC)C2C(=O)N(C)C(=O)C21 (stereo not drawn)	14.4%
O=c1c(CCc2ccccc2)nc2cnc(N3CCOCC3)nc2n1Cc1ccc(F)cc1	5.01µM*
OCCN[C@@H]1c2cc(Cl)ccc2-c2c(Cl)cc(Cl)cc21	7.2%[11.4 µM]
O=C1CC[C@H](NC(=O)c2ccccc2)C(=O)N1	4.1%[11.4 µM]
O=C(Nc1ncccc1O)c1cccc(S(=O)(=O)N2CCc3ccccc32)c1	-3.9%
CCCOC(=O)C1[C@H]2C(=O)N(CC3CCCO3)C[C@]23C=C[C@H]1O3 (stereo partly drawn)	-4.8%
O=C1NCCNC1(c1c[nH]c2ccccc12)C(F)(F)F (stereo not drawn)	-3.5%
Nc1c(C(=O)NCCN2CCOCC2)c2nc3ccccc3nc2n1-c1ccc2c(c1)OCO2	15.8µM*
CC(=O)CC(=O)Nc1ccc2ccccc2c1	9.7%[11.4 µM]
CC1Oc2ccccc2N(CC(=O)NCCc2ccccc2)C1=O (stereo not drawn)	20.2%
Cc1cc(C(=O)COc2ncnc3sccc23)c(C)n1C1CC1	-0.5%
O=C(Cn1cnc2c(nnn2Cc2ccc(Cl)cc2)c1=O)NCc1ccco1	-8.9%
COc1cccc(/C=c2\sc3nc(-c4cccs4)nn3c2=O)c1OC	0.2%
COC(=O)c1ccc(CSc2nnc(-c3ccncc3)n2Cc2ccccc2)o1	-2.3%
[O-][n+]1onc2c1CCc1nnc(-c3ccccc3)cc1-2	?
COc1ccc(-c2nnc3ccc(SCC(=O)NCC4CCCO4)nn23)cc1 (stereo not drawn)	-4.8%
COc1cc(C2C(C(=O)Nc3ccc(F)cc3)=C(C)Nc3nc(CCCO)nn32)cc(OC)c1OC (stereo not drawn)	4.5%
COc1ccc(OC)c(S(=O)(=O)N2CCCCCC2)c1	8.0%
O=C(Nc1nc2c(ccc3ccccc32)s1)c1ccco1	-25.8%
CCn1c(SCC(=O)N2CCCC2)nc2c(c1=O)SC(C)C2 (stereo not drawn)	3.9%
CCCCOn1c(C)c(C(=O)OCC)c2c3no[n+]([O-])c3ccc21	2.8%
CS(=O)(=O)N(CC(=O)NCc1ccco1)c1ccc(Cl)c(C(F)(F)F)c1	-0.2%
Cc1cc(C)c(-c2cc([C@H](C)O/N=C3/[C@H]4OC4[C@@H](O)[C@H]4[C@H]3CCn3c(=O)n(-c5ccccc5)c(=O)n34)on2)c(C)c1 (stereo partly drawn)	-11.3%[11.4 µM]
CCOC(=O)N1CCN(CC(=O)c2ccc3c(c2)CCN3)CC1	0.9%
COc1nc(Cl)nc(Cl)c1Cl (tested in a mixture with another compound)	5.4%[11.4 µM]
Cn1c(N)c(C(=O)COC(=O)C2(c3ccccc3F)CCCC2)c(=O)n(C)c1=O	-0.2%
CCCCOc1ccc(-c2c(C#N)c(N)nc(SCC(N)=O)c2C#N)cc1	25.1µM*
COc1ccc(/C=C/c2cc(OC)cc(=O)o2)cc1	?
CCOC(=O)c1ccc(CNC(=O)CSc2nnnn2-c2ccc(Cl)cc2)o1	-5.7%
O=C(Nc1ccc2c(c1)OCO2)c1cccs1	3.8%
CCOC(=O)N1CCC(NC(=O)c2ccc3c(c2)N(C)CCS3)CC1	31.6µM*
O=C(c1ccc(CS(=O)(=O)c2ccc(Br)cc2)o1)N1CCCCCC1	11.6%
COc1ccccc1S(=O)(=O)n1cc(Cc2ccccc2)c(N)n1	-1.0%
CCCn1c(=O)n(C)c(=O)c2c(SCc3cc(C(C)=O)ccc3OCC)nc(C3CC3)nc21	-16.2%
CCC(=O)OCC(=O)C1(OC(=O)CC)C(C)CC2C3CCC4=CC(=O)C=CC4(C)C3(Cl)C(O)CC21C (stereo not drawn)	-2.1%
O=C(c1ccccc1Cl)N1CCc2ccccc2C1	-1.0%
CCOC(=O)c1oc2nc(C)c3c(c2c1N)CC(C)(C)OC3	31.6µM*
COc1ccc(-c2c(C)oc3c(CN4CCCCC4C)c(O)ccc3c2=O)cc1OC (stereo not drawn)	20µM*
COc1ccc(N(CC(=O)Nc2cccc(C)c2C)S(=O)(=O)c2c(C)n[nH]c2C)cc1	-4.1%
CC(C)(C)NC(=O)CN1CCC(O)(c2ccccc2)CC1	-5.2%

Grouped by structure, the entries above with a CF3 group.
Structure	HSD17B inhib
COc1cc(OC)nc(NC(=O)NS(=O)(=O)c2ccc(OC(F)(F)F)cc2)n1	7.5%
O=C(O)c1cc2nc(-c3ccc(F)cc3)cc(C(F)(F)F)n2n1	-12.3%
O=C1NCCNC1(c1c[nH]c2ccccc12)C(F)(F)F (stereo not drawn)	-3.5%
CS(=O)(=O)N(CC(=O)NCc1ccco1)c1ccc(Cl)c(C(F)(F)F)c1	-0.2%

More entries:
Structure	HSD17B inhib
CCN(CCCNC(=O)COc1cc(=O)n(CC)c2ccccc12)c1ccccc1	-4.8%
Cc1ccc(-c2ccc(=O)[nH]n2)cc1	-28.5%
CC1(C)CC(=O)C(C=NCC(N)=O)=C(O)C1	3.9%
Cc1ccc2c(c1)N(C(C)C(=O)NCCc1ccccc1)C(=O)CO2 (stereo not drawn)	-2.8%
Cc1cc(C)nc(N2CCCC(C(=O)NCc3cccs3)C2)n1 (stereo not drawn)	-23.7%
COCC(=O)N1CCC[C@@]2(CCN(C(=O)Nc3ccc(OC)cc3)C2)C1	5.5%
O=C1CC(N2CCN(c3ccccc3)CC2)C(=O)N1c1ccc2c(c1)OCCO2 (stereo not drawn)	5.6%
O=C(CN1c2cccc3cccc(c23)S1(=O)=O)NCc1ccc2c(c1)OCO2	?
COC(=O)c1c(NC(=O)c2ccc(Br)s2)sc2c1CCC2	?
CCCCNC(=O)CN1C(=O)C(CC)Oc2ccc(Cl)cc21 (stereo not drawn)	3.5%
CC1CCN(c2oc(-c3ccccc3F)nc2C#N)CC1	31.6µM*
Cn1c(NC(=O)CC(C)(C)C)cc(=O)n(C)c1=O	?
O=C(COc1nnc2ccccn12)N1CCN(S(=O)(=O)c2ccccc2)CC1	12.6µM*
CC1CN(S(=O)(=O)c2ccc(NC(=O)c3cc(-c4ccccc4O)n[nH]3)cc2)CC(C)O1 (stereo not drawn)	-5.6%
O=C(CN1C(=O)c2ccccc2S1(=O)=O)NCc1ccccc1Cl	4.7%
CCOC(=O)C1C(=O)NC(C)C1c1ccccc1 (stereo not drawn)	6.1%
COCC(=O)N1CCC2(CC1)CN(C(=O)Nc1cccc(C#N)c1)C2	6.4%
CCOC(=O)c1cnc2c(C)cccc2c1NCc1ccco1	?
COc1ccccc1N1CCN(C[C@@H](C(=O)NC(C)(C)C)c2ccccc2)CC1	?
Cc1ccc(N(C(=O)Cn2nnc3ccccc32)C(C(=O)NCc2ccco2)c2cccnc2)cc1 (stereo not drawn)	2.1%

Screens: PubChem, National Center for Advancing Translational Sciences (NCATS)
